Ab BasE inh: inhibitors of Acinetobacter baumannii siderophore enzyme BasE | purified BasE, fluorescence polarization binding displacement | inhibition, % (no concentration beside the values) | 0.1% of 84,000 active | AID 485350;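 active = both replicates above 25% with normal brightness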;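 note: 0% = negative plate control signal and 100% = positive plate control signal; stock transfer was 100 nL into about 30 µL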
KSHV LANA nucl: LANA-nucleosome interaction inhibition | 0.3% of 51,000 active | FITC-LANA1-23 / chicken nucleosome fluorescence polarization; hits give low values | z-score (no concentration beside the values) | AID 720717;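 active = both repeat wells score below -2 in polarization z-score versus plate sample wells, excluding overly bright wells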;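 note: 100 nL library stock added to about 30 µL; numbers are from one replicate; some results filed as inactive read as strong as hits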
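Assay system: purified chicken nucleosomes with FITC-labelled LANA N-terminal peptide (1-23) / Probe or stimulus: 50 nM FITC-LANA1-23 probe / Compound dosing: pin-transferred compound, 100 nL / Times: compound with peptide–nucleosome mix 10–45 min at room temperature / Technique: fluorescence polarization, 480 nm excitation, 535 nm parallel and perpendicular emission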
Active calls of the source: *; . = not tested or not shown; & = joins results of further samples.

SMILES | Ab BasE inh | KSHV LANA nucl
O=C1CC(c2ccco2)Cc2nc(NC3CC3)ncc21 (stereo unspecified) | 0.8 | .
O=C(CSc1nc(-c2ccccc2)c(-c2ccccc2)o1)NCCN1C(=O)CSC1=O | -6.2 | .
O=CN(Cc1ccco1)C1(C(=O)NC2CCCCC2)CCCCC1 | 0.0 | 1.2
CC(C)(C)NC(=O)N1CCOCC1 | . | 0.55
CCN(CC)S(=O)(=O)c1ccc(Cl)c(C(=O)N2CCN(c3ncccn3)CC2)c1 | 1.5 | .
CCc1cc2c(=S)[nH]cnc2s1 | 0.5 | .
C=C1/C(=C\C=C2/CCC[C@]3(C)[C@@H]([C@H](C)/C=C/[C@@H](O)C4CC4)CC[C@@H]23)C[C@@H](O)C[C@@H]1O | . | -0.21&-0.026
CCC1CCC(NCC(C)(C)CN(C)C)CC1 (stereo unspecified) | -3.0 | -0.55
O=C(CCC(=O)c1ccc(Cl)s1)OCc1nc2ccccc2s1 | 0.7 | .
O=C(CSc1nnc(NC(=O)c2ccc(Cl)c(Cl)c2)s1)Nc1ccc(F)c(F)c1F | 3.4 | .
CC(C)(C)c1cc(N)n(-c2ccc(Br)cc2)n1 | 1.9 | 0.04
O=C(CN1C(=O)CSCC1=O)Nc1ccc(Cl)cc1 | -0.9 | 0.061
Cc1nnc(SC(C)C(=O)NC2CCCCC2)[nH]c1=O (stereo unspecified) | 0.3 | 0.27
Cc1ccc(Nc2nc(N)nc(CSc3ccc(F)c(Cl)c3)n2)cc1 | 1.1 | .
Cc1ccccc1OCC1CN(CN2CCC(C)CC2)C(=O)O1 (stereo unspecified) | -0.1 | .
COC(=O)CCC(=O)Oc1ccc2ccccc2c1 | -1.4 | -0.21
CCCN(CCC)C(=O)CC(c1ccccc1)c1cc(Br)ccc1O (stereo unspecified) | 0.7 | .
O=C1c2ccccc2SCC1(CO)CO | . | -0.83
CCc1oc2ccccc2c1/C=C/C(=O)O | -2.3 | .
COC(=O)C1=NN(c2ccccc2)C(=O)/C1=C\N(C)C | 1.7 | .
NC(=O)C1CCN(C(=S)NCCc2ccccc2)CC1 | -3.2 | -0.24
CC(=O)N1CCOc2cc(S(=O)(=O)N3CCCC3)c(Cl)cc21 | -0.4 | -0.21
COc1cccc(NC(=O)Nc2ccc3nc4n(c(=O)c3c2)CCC4)c1 | 0.6 | .
Cc1ccc(CC(C#N)Sc2nnc(C(C)N3CCCCC3)n2-c2ccc(F)cc2)cc1 (stereo unspecified) | -0.5 | .
O=C(NCC(=O)N1CCN(c2ccccc2F)CC1)c1ccco1 | 0.2 | -0.02
O=C(c1cccc(S(=O)(=O)N2CCOCC2)c1)N1N=C(c2ccccc2)CC1(O)C(F)(F)F (stereo unspecified) | 4.2 | .
CCCNC(=S)N1CCC(C(=O)c2ccc(C)cc2)CC1 | -0.5 | .
CN1CCN(NC(=O)CN(C)S(=O)(=O)c2cc(Cl)ccc2Cl)CC1 | 1.1 | 0.12
CC(C)NC(=O)c1ccc(S(=O)(=O)N(C)C)cc1 | -2.4 | 0.6
CC(=O)NC1C(=O)N(C)N=C1c1ccccc1 (stereo unspecified) | -0.8 | .
O=C(Nc1ccccc1)OCC(CN1CCCCC1)OC(=O)Nc1ccccc1 (stereo unspecified) | -2.9 | -0.7&-0.18
CN1CCN(C(CNC(=O)c2cccc(F)c2)c2ccc(F)cc2)CC1 (stereo unspecified) | 1.1 | -0.43
CCOC(=O)c1cc(-c2ccccc2)sc1NC(=O)CN1CCc2ccccc21 | . | -0.17
CCOC(=O)C1=C(O)/C(=C/c2ccc(N3CCOCC3)o2)SC1=Nc1ccc(OCC)cc1 | -26 | 6.3
N#Cc1cn(-c2ccccc2)nc1-c1cccnc1 | 1.9 | 0.2
Clc1ccc(-c2nc(NCc3ccco3)c3ccccc3n2)c(Cl)c1 | -1.5 | 0.73
O=C(Nc1ccccc1)N1CCn2cccc2C1Cc1ccccc1 (stereo unspecified) | -1.7 | -0.48
COCCNC(=O)Cn1nc(C)c(NC(=O)c2cc(-c3ccc(F)cc3)no2)c1C | 1.8 | -0.58
CNCc1ccccc1F | 4.0 | .
Cc1nc(Nc2ccc(S(N)(=O)=O)cc2)oc1C | 2.8 | 0.42
CC1CN(C(=N)N)CC(C)O1 (stereo unspecified) | -1.2 | .
COc1cccc2c1Oc1ncccc1N(c1ccc(C(=O)N3CCCC3)s1)C2 | -1.8 | -0.014
CC(=O)Nc1ccc(NC2OC(=O)c3ccccc32)cc1 (stereo unspecified) | -1.2 | -0.3
Cc1nc(-c2cc(C#N)c(Sc3cccc(C(F)(F)F)c3)nc2C)cs1 | 0.5 | .
CN1C2=NCCN2C(=O)c2ccccc21 | 1.3 | 0.075
CC(NC(=O)C1CCN(C(=O)c2cc3sccc3n2C)CC1)C12CC3CC(CC(C3)C1)C2 (stereo unspecified) | -1.5 | 0.22
Cc1ccc(O)c(C(CCN(C(C)C)C(C)C)c2ccccc2)c1 (stereo unspecified) | . | -0.0045
Cc1ccc(NC(=O)CC2C=CCC2)cc1 (stereo unspecified) | -0.9 | .
CCOC(=O)c1c(C)[nH]c(C(=O)OCC(N)=O)c1C | 1.9 | .
COc1ccc(OCC(=O)N2CC(C)CC(C)C2)cc1 (stereo unspecified) | -0.8 | .
CCn1cc(/C=C(\NC(=O)c2ccccc2)C(=O)NCc2ccco2)c2ccccc21 | -1.2 | 0.16
CCN1C2OC(C3OC4C(O3)N(CC)S(=O)(=O)N4CC)OC2N(CC)S1(=O)=O (stereo unspecified) | 0.6 | -0.76
C=CCn1c(SCC(=O)Nc2ccc3[nH]c(=O)[nH]c3c2)nc2ccccc2c1=O | -5.7 | .
CCN(Cc1ccccc1)C(=O)c1cc(-c2ccc(C)c(C)c2)n[nH]1 | 1.7 | .
O=C(Cn1ncc(Cl)c(Cl)c1=O)N1CCCCCC1 | 1.4 | .
CCCN1C(=O)SC(CC(=O)Nc2ccc(C(=O)OCC)cc2)C1=O (stereo unspecified) | -0.4 | .
Cc1ccc(N=C2N=C(N)c3ccccc32)c(C)c1 | -0.1 | .
Cc1ccc(-n2nnnc2SCC(=O)Nc2cccc3nsnc23)c(C)c1 | 0.3 | .
O=C1O[C@@H]2C[C@H]3C[C@@H]2[C@@H]1[C@H]3C(=O)N1CCC(C(O)(c2ccccc2)c2ccccc2)CC1 | 0.3 | -0.72
O=C(Nc1ccccc1)N(C1=NCCC1)c1ccccc1 | -0.7 | .
(next part)
SMILES | Ab BasE inh | KSHV LANA nucl
C(=C\c1ccccc1)/C=N/n1cnnc1 | 1.8 | -0.071
COc1ccccc1C(C)NC(=O)c1ccc(=O)[nH]c1 (stereo unspecified) | 2.4 | .
CCOc1ccc(-n2c(SC(C)C(=O)NCc3ccco3)nnc2-c2ccccc2Cl)cc1 (stereo unspecified) | 3.5 | .
CN=Cc1cc(-c2ccccc2)n(C)c1S | 2.2 | .
CC(=Nc1ccc(Cl)cc1)c1cccs1 | 1.8 | .
CCCn1c2c(c(=N)c3c1CCC3)CCC2 | 0.6 | .
CCCCCn1c(Br)nc2c1c(=O)n(CC(N)=O)c(=O)n2C | -2.1 | -0.18
COc1ccc(-c2c(C(F)(F)F)nn(C)c2NC(C)=O)cc1 | 0.0 | -0.76
O=C(c1cc2ccc3cccnc3c2[nH]1)N1CCCC1 | -3.6 | .
Cc1cc(C2=NNC(=NCC3CCCO3)SC2)c(C)n1-c1ccc(F)cc1 (stereo unspecified) | -0.2 | .
CN(C)CCCNc1nc(-c2ccc(Cl)cc2)cs1 | -13 | -0.64
CSc1ncc(C(=O)NC2CCN(Cc3ccccc3)CC2)c(C)n1 | -3.9 | 0.89
N#CCOC(=O)c1ccc2c(c1)S(=O)(=O)N=C1CCCCCN12 | 1.6 | .
FC(F)(F)c1cc(Cl)c2ncc(-c3ccc(Br)s3)nc2c1 | 1.6 | .
c1ccc(-c2nnc(Sc3ncnc4c3oc3ccccc34)o2)cc1 | 2.0 | .
S=c1[nH]cc(-c2ccc(Br)cc2)[nH]1 | 2.3 | -0.42
Cc1ccccc1OCC(=O)NN1C(=O)C2C3C=CC(O3)C2C1=O (stereo unspecified) | -2.7 | 0.19
Cc1ccc(-c2nn(-c3ccccc3)cc2/C=N/O)cc1 | 1.8 | .
C=CCN(CC(=O)Nc1cccnc1)S(=O)(=O)c1ccc(Cl)cc1 | 1.0 | .
Brc1cccc(COc2ccc(-c3nnco3)cc2)c1 | 1.0 | .
COC(=O)C1=C(C)N(C)C(=S)NC1c1ccccc1 (stereo unspecified) | 0.4 | .
c1ccc(C(c2ccccc2)N2CCN(c3ncnc4nc[nH]c34)CC2)cc1 | 1.5 | -0.11
Cc1onc(-c2ccccc2)c1C(=O)N1CCN(S(=O)(=O)c2ccccc2)CC1 | 0.2 | 0.33
CCOc1ccc2nc(Nc3nc(O)cc(=O)[nH]3)nc(C)c2c1 | 0.4 | .

Record cards, from the list above:
Brc1cccc(COc2ccc(-c3nnco3)cc2)c1 reads Ab BasE inh: 1.0; KSHV LANA nucl: .
FC(F)(F)c1cc(Cl)c2ncc(-c3ccc(Br)s3)nc2c1 reads Ab BasE inh: 1.6; KSHV LANA nucl: .
COC(=O)C1=C(C)N(C)C(=S)NC1c1ccccc1 (stereo unspecified) reads Ab BasE inh: 0.4; KSHV LANA nucl: .

A few values from the entries so far:
O=CN(Cc1ccco1)C1(C(=O)NC2CCCCC2)CCCCC1 in Ab BasE inh reads 0.0
COc1ccc(-c2c(C(F)(F)F)nn(C)c2NC(C)=O)cc1 in KSHV LANA nucl reads -0.76

Continuation.
SMILES | Ab BasE inh | KSHV LANA nucl
O=C(CSc1ccccn1)c1c[nH]c2ccccc12 | 5.3 | .
CC1CCCN(C(=O)C2CCCN(S(=O)(=O)c3cccc4nsnc34)C2)C1 (stereo unspecified) | 2.2 | 0.54
O=C(CC1Sc2ccccc2NC1=O)Nc1ccc(N2CCOCC2)cc1 (stereo unspecified) | 2.4 | -1.5
Nc1cc(=O)n(Cc2ccccc2)c(=O)n1-c1ccccc1 | -1.0 | .
Cc1cc(C)nc(SCc2ccc(C(=O)NN)cc2)n1 | -1.9 | .
Cc1ccc(C(=O)NS(=O)(=O)c2ccccc2)cc1 | 1.2 | -0.35
COc1cccc(CNC(=O)COC(=O)C2CCN(S(=O)(=O)c3ccc(C)cc3)CC2)c1 | -0.1 | .
COc1ccc(CNC(=O)C(C)Sc2nc3ccccc3n2C)cc1 (stereo unspecified) | 0.9 | .
CCCCCCN1CC(O)=C(c2nc3ccccc3[nH]2)C1=N | -0.6 | 0.4
CN(C)/C(=N\S(=O)(=O)c1ccc(F)cc1)c1ccccc1 | 1.5 | .
Cc1ccc(/C=C2/Sc3ccccc3N(CC(=O)NCCCN3CCN(C)CC3)C2=O)cc1 | -6.1 | -0.45
COc1ccc(S(=O)(=O)N(CCc2ccccc2)CC(=O)Nc2cccc(Cl)c2)cc1OC | 0.5 | .
O=C(NCC1COc2ccccc2O1)c1cc(-c2ccco2)nc2ccccc12 (stereo unspecified) | 1.1 | .
CN(Cc1ccccc1)c1nc2c(c(=O)[nH]c(=O)n2C)n1CCCOc1ccccc1 | -0.7 | 0.15
CS(=O)(=O)c1ccc(CC(=O)O)cc1 | 0.2 | -0.57
CCOC(=O)Cn1c(=O)n(CCc2ccc(OC)c(OC)c2)c(=O)c2cccnc21 | 0.7 | -1.4
O=C(Nc1cccnc1)c1cc2c(s1)-c1ccccc1CC2 | -2.5 | .
CCCCCCCCCCCCC/C=C/[C@@H](O)[C@H](CO)NC(C)=O | -2.3 | -0.53
C1=CC2C=CC1c1ccccc12 | 3.2 | 0.22
Cc1nc2ccc(NS(=O)(=O)c3ccccc3C(F)(F)F)cc2s1 | -1.3 | .
C/C=C/C1(/[N+]([O-])=C/c2ccccc2)CCCCC1 | -2.5 | -0.081
Cc1ccc2c(c1)CCCN2C(=O)CC(=O)N1CCCc2cc(C)ccc21 | -8.2 | .
Cc1ccc(Br)cc1S(N)(=O)=O | -0.5 | .
O=C(NCCC(=O)N1CCN(C/C=C/c2ccccc2)CC1)c1ccc(Cl)cc1 | 0.6 | .

6 of these compounds in another layout:
Each structure is followed by: Ab BasE inh, KSHV LANA nucl
CN(Cc1ccccc1)c1nc2c(c(=O)[nH]c(=O)n2C)n1CCCOc1ccccc1
  -0.7, 0.15
CS(=O)(=O)c1ccc(CC(=O)O)cc1
  0.2, -0.57
CCOC(=O)Cn1c(=O)n(CCc2ccc(OC)c(OC)c2)c(=O)c2cccnc21
  0.7, -1.4
O=C(Nc1cccnc1)c1cc2c(s1)-c1ccccc1CC2
  -2.5, .
CCCCCCCCCCCCC/C=C/[C@@H](O)[C@H](CO)NC(C)=O
  -2.3, -0.53
C1=CC2C=CC1c1ccccc12
  3.2, 0.22

Next section.
SMILES | Ab BasE inh | KSHV LANA nucl
O=C(NCc1cccs1)c1cc(=O)[nH]c2ccc(S(=O)(=O)N3CCCC3)cc12 | -2.2 | -1.5
Cc1cc(-n2c(C)cc(CNC3CCN(Cc4ccccc4)C3)c2C)no1 (stereo unspecified) | -1.3 | .
Cc1cc(OCC(=O)O)c2ccccc2n1 | -1.1 | 0.076
CC(C(=O)c1ccccc1)[n+]1ccc2ccccc2c1 (stereo unspecified) | -4.9 | .
CC(C)Cc1ccc(C(C)C(=O)NC(C)C)cc1 (stereo unspecified) | 2.4 | .
O=C(CCc1c[nH]c2ccccc12)OCC(=O)N1CCc2ccccc21 | 0.5 | .

Some of the compounds tested, so the mix of outcomes need not match the whole.
